Assay outcomes from PubChem BioAssay.
HCMV UL50-53 inh: cytomegalovirus nuclear egress complex inhibition; 0.15% of 190,000 active; AID 1918969; HTRF UL50-UL53 interaction, normalized percent inhibition; inhibition, % (test concentration not listed);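 active = both replicates at 50% or more, plus weaker picks with an unusually low signal ratio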;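 note: stock transfer was 100 nL into about 20 µL; 0% = negative control wells and 100% = wells with untagged competitor protein; inactives centre near -12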
Sa growth inh: S. aureus growth inhibition; S. aureus RN4220 growth, OD600, 20 h, 42 °C; hits give low values; relative growth, % (test concentration not listed); 0.53% of 170,000 active;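 active = growth at 42 °C up to 50% and 20 or more points under that at 30 °C, or under 10% at both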;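 note: 300 nL library stock went into each well; scaled to the means of positive and negative controls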
GIV Gai3 FP: GIV-Galpha-i interaction inhibition | Galpha-i3/FITC-GIV peptide fluorescence polarization, 90 min; hits give low values; scaled: aluminum fluoride 0%, vehicle 100% | P08753 | 0.42% of 210,000 active | percent of control (FP), % (concentration not given with the values) | AID 1224905;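 active = replicate mean at 85% of control or lower, very high polarization wells dropped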;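 note: wells of about 15 µL received 100 nL stock; the first replicate is given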
Target sequence (P08753 whole entry, looked up): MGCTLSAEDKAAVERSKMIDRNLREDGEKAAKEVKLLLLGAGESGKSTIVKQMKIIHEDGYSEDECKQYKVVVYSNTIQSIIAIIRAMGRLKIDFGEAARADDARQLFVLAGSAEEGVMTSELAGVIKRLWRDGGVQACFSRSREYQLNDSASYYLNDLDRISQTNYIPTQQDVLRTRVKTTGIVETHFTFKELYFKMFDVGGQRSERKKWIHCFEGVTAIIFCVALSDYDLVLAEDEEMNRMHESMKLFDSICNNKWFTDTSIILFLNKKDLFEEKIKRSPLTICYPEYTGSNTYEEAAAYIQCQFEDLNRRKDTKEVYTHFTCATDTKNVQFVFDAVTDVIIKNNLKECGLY
Sa growth inh second temp: further read-out of Sa growth inh, marked with its call; relative growth, %; measured here: growth at 30 °C;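 optical density after 20 h as mean of two plates; 100% = untreated growth and lower means inhibition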
An asterisk follows results filed as active; · = no result given; & = joins results of further samples.

SMILES	HCMV UL50-53 inh	Sa growth inh	Sa growth inh second temp	GIV Gai3 FP
COc1cc(OC)cc(N2C(=O)c3cc(C)nn3CC2(C)C(=O)NCc2ccccc2)c1 (centres undefined)	-4	·	·	96
COc1cc(Br)c(CC(=O)OCc2nc(N)nc(Nc3ccc(C)cc3)n2)cc1OC	-3	119	75	·
CC1=C(C#N)C(=O)N(CC(C)O)C(=O)/C1=C/c1ccc(-c2ccc(C(=O)OC(C)C)cc2)o1 (centres undefined)	-32	79	59	106
Cc1ccc(-c2noc(-c3nnn(-c4cccc(C(F)(F)F)c4)c3N)n2)cc1	·	112	92	95
COc1ccccc1Nc1ncc2c(n1)CCN(Cc1ccc(C)s1)C2	·	90	91	102
c1ccc2sc(Nc3nc4cc5c(cc4s3)OCO5)nc2c1	-28	92	78	98
COc1cc(OC)c(NC(=O)c2ccc3nc(C(C)C)oc3c2)cc1Cl	·	84	77	103
C=CCn1c(O)c(C2=NNC(c3ccc4c(c3)OCO4)C2)c(=O)[nH]c1=O (centres undefined)	-12	·	·	100
O=C(O)C(CC1COc2ccccc2O1)C(=O)O (centres undefined)	2	77	90	108
COc1ccc(CNC(=O)c2cc3ccccn3n2)c(OC)c1	·	90	96	106
CC(C)C(NC(=O)CSc1nnc(-c2ccc(F)cc2)o1)c1nc2ccccc2[nH]1 (centres undefined)	-6	101	95	·
CC(C)NS(=O)(=O)c1cc(C(=O)N2CCCC2)cs1	-16	·	·	114
NC(=O)c1c(/N=c2\oc3ccc(Cl)cc3cc2C(N)=O)sc2c1CCCC2	-30	·	·	110
CCCc1cc(C(=O)N2CCCN(C)CC2)cs1	-29	105	100	105
COc1cccc(CNc2ccc3c(c2)ncn3C2CCCCC2)c1	·	0.1*	0.2*	96
Nn1c(COc2cccc(Br)c2)nnc1SCC(=O)NCc1ccccc1	-21	95	94	·
Cc1ccc2nc(Cl)c3cc(C(=O)NC4CCC(C)CC4)sc3c2c1 (centres undefined)	-30	110	88	107
CSc1nc2ccccc2c(=O)n1Cc1ccc(F)cc1	-10	110	104	·
CCCCCn1c(N2CCOCC2)nc2c1c(=O)n(CC(N)=O)c(=O)n2C	-15	94	85	107
CCCc1nnc2sc(COc3ccc(C)c(C)c3)nn12	-10	·	·	106
Cc1cc(NC(=O)CSc2nc3ccc(N4CCOCC4)cc3c(=O)n2CCc2ccccc2)n[nH]1	-13	98	84	105
O=C(/C=C/c1cccs1)NC(=S)NCc1ccccc1	-16	92	78	100
Cc1nnc(NCc2ccccc2)c2c1nnn2Cc1ccc(F)cc1	-5	80	78	110
C=CCOc1ccc(Br)cc1/C=C1\Sc2ccccc2C1=O	-12	·	·	104
COc1ccc2cc3cc(C(=O)NCCc4ccccc4)sc3nc2c1Cl	·	90	88	97
NS(=O)(=O)c1ccc(NC(=O)c2cc(=O)n3c(nc4ccccc43)s2)cc1	-32	·	·	104
Cc1cc(C)c2nc(SCC(=O)c3ccco3)cc(C)c2c1	27	132	93	·
COc1cc(N/C=C(\C#N)c2nc(-c3cc4ccccc4oc3=O)cs2)c(OC)cc1Cl	-15	·	·	103
COc1ccc(CC(=O)NCC(C)(C)N2CCOCC2)cc1	-23	96	88	·
Cc1cc(C(=O)Nc2ccccc2)no1	-1	95	67	103
CCCC(=O)n1c(=S)oc2cc(Cl)ccc21	-8	54	23	·
CCc1ccccc1NC(=O)Cn1c(=O)n(Cc2ccc3c(c2)OCO3)c(=O)c2ccc(C(=O)NC3CCCCC3)cc21	10	98	103	106
COc1ccc(-c2cc(C(F)(F)F)n3ncc(C(=O)NCc4cnn(C)c4C)c3n2)cc1OC	-36	·	·	108
Cc1noc2c1C(c1ccc(O)c(O)c1)C1=C(CC(c3ccc(O)cc3)CC1=O)N2 (centres undefined)	-11	·	·	105
Cc1cccc(-c2nc(C)c(CCNC(=O)C(=O)Nc3ccc(C)c(C)c3)s2)c1	·	104	93	104
O=C(O)CCC(=O)Nc1cccc(-c2nc3ccccc3[nH]2)c1	·	108	87	99
O=C(NCc1ccc2c(c1)OCO2)C(=S)N1CCCCC1	-2	92	99	106
Cc1ccc(C(=O)CC(NCCc2c[nH]c3ccccc23)C(=O)O)cc1 (centres undefined)	0	89	82	·
CCCn1c2ccccc2c2nnc(SCC(=O)NC(C)c3ccccc3)nc21 (centres undefined)	-1	67	97	·
Cc1ccc(Cn2c(C)c(CNC(C)c3ccccc3)c(C(=O)O)c2C)cc1 (centres undefined)	-9	73	85	110
O=S(=O)(NCc1ccccc1)c1ccc(N2CCCCS2(=O)=O)cc1	-1&-4	106	84	100&105
NNc1nc(C(F)(F)F)nc2c1cnn2Cc1ccccc1	-24	80	89	·
CC1(C)CC(=O)/C(=N/Nc2ccccc2)CO1	-98	105	82	104
O=C(O)C1=C(Nc2ccccc2)OCC1=O	-4	96	86	·
COc1ccc(-c2cc(C(=O)Nc3cnn(Cc4ccc(F)cc4)c3)no2)cc1OC	-10	94	86	103
CC1OCC/C1=N/OC(=O)Nc1c(Cl)cccc1Cl (centres undefined)	-40	86	85	107
Fc1ccc(C2=NN(C(=S)NCc3ccccc3)CCC2)cc1	-4	86	90	99
Cn1cnc2c(=O)oc3ccc(S(=O)(=O)Nc4ccc(F)cc4)cc3c21	·	107	88	106
Cc1ccc(C)c(NCc2cc(=O)n3ccsc3n2)c1	-23	93	92	·
Cc1ccccc1Cc1c(C)[nH]c2nc3ccccc3n2c1=O	-8	84	89	101
Next part:
SMILES	HCMV UL50-53 inh	Sa growth inh	Sa growth inh second temp	GIV Gai3 FP
COc1cc(CNCCN2CCOCC2)cc(Cl)c1OCC(N)=O	-19	100	89	99
COc1ccc(NC(=O)CC2C(=O)N(c3ccccc3)C(=O)N2C2CCCCC2)cc1 (centres undefined)	-24	99	90	99
CCCCN(Cc1ccccc1)C(=O)c1oc(=O)c2ccccc2c1-c1ccc(C)cc1	-11	99	91	103
O=C(c1csc2c1CCCC2)N1CCCCC1	5	102	102	·
CCCCn1cc(S(=O)(=O)c2ccc(CC)cc2)c(=O)c2cc(F)c(N3CCOCC3)cc21	·	94	88	104
O=C(CCN1C(=O)/C(=C\c2ccco2)SC1=S)Nc1ccccc1	-31	105	82	107
CN1C(=C(C#N)C(=O)COc2ccc(F)cc2Cl)N(C)c2ccccc21	-18	93	86	·
Cc1c(C(=O)N2CCOCC2)c(S(=O)(=O)NCCc2ccc(Cl)cc2)c(C)n1C	7	106	103	109
Cc1csc(N(C(=O)Cn2nnc3ccccc32)c2ccccc2)n1	-18	95	82	·
COC(=O)C1=C(C)NC2=C(C(=O)CC(c3ccc(OC)c(OC)c3)C2)C1c1ccccc1Br (centres undefined)	-5	·	·	98
N#Cc1nc(-c2ccc(S(=O)(=O)N3CCCC3)cc2)oc1NC1CCCCC1	-33	·	·	104
Cc1c(C(=O)Nc2ccc(C(=O)O)cc2)cnn1C	-16	111	83	102
Cn1nc(C(=O)NCCCN2CCOCC2)c2c1-c1ccsc1CC2	2	·	·	97
CC(=O)Nc1c(C(=O)c2ccc(F)cc2)oc2ccccc12	2	94	74	109
CCOC(=O)COc1ccc2c(=O)c(-c3cscn3)coc2c1	-22	88	92	·
Cc1ccc(N2CCN(C(=O)C3CCN(c4ccc(N5CCOCC5)nn4)CC3)CC2)c(C)c1	-12	·	·	96
CCOC(=O)C(O)(C1C(=O)CC(C)(C)CC1=O)C(F)(F)F (centres undefined)	-10	42	34	99
O=C(c1cc2c(s1)-c1ccccc1SC2)N1CCC(Cc2ccccc2)CC1	-9	·	·	99
COc1ccc(N(C)C(=O)c2ccc3c(c2)nnn3C)cc1	-6	111	86	105
CC(OC(=O)Cn1cc(C(F)(F)F)ccc1=O)C(=O)Nc1ccc2c(c1)OCO2 (centres undefined)	-28	83	89	·
O=C(Nn1c(-c2cccc([N+](=O)[O-])c2)nc2ccccc2c1=O)c1ccc(Br)cc1	-40	·	·	111
CSc1nc(SC)c(C#N)c(-c2cccs2)n1	7	105	93	98
O=C(CCCc1nc2ccccc2s1)NC1CCOC1=O (centres undefined)	-25	84	82	·
O=C(NCCCO)c1cc2ccccc2oc1=O	-75	107	96	98
Cc1cc(N2CCC(NC(=O)Nc3ccc(F)cc3F)CC2)n2ncnc2n1	12	·	·	111
O=C(O)CSc1nc2cc(Cl)ccc2n1Cc1ccccc1	-11	87	80	·
CCN(CC(=O)NC1CCS(=O)(=O)C1)C(=O)c1cc(C)on1 (centres undefined)	-15	85	81	·
O=C1Cc2cccc3cccc1c23	-72	103	15	102
Cc1cc(-n2c(C)cc(C(=O)CSc3ccc4c(c3)OCCO4)c2C)no1	-20	114	73	·
CC(Sc1ccccc1F)C(=O)Nc1ccc(S(N)(=O)=O)cc1 (centres undefined)	-20	98	96	·
COc1cccc(OC)c1C(=O)Nc1nnc(C)s1	-9	90	88	100
CC1CN(C(=O)COC(=O)C23CC4CC(CC(C4)C2)C3)CC(C)O1 (centres undefined)	-1	98	91	·
COc1ccc(C)cc1S(=O)(=O)NC(C)(C)C	6	99	101	106
CCC(C)(C)NCc1ccc2c(c1)n(C)c(=O)n2C	-17	·	·	99
CCc1cccc(C)c1NC(=O)C1=C(C)C(=O)OC12CCC(C)CC2 (centres undefined)	-34	105	91	102
CN(C)S(=O)(=O)N(CC(=O)NCCSc1ccc(Cl)cc1)c1ccccc1	-30	84	78	104
COc1ccc(C2=CC(c3ccc(F)cc3)n3ncc(C(=O)Nc4ccc(C)cc4)c3N2)cc1 (centres undefined)	·	112	102	114
CC(NC(=O)CC1(CC2=NS(=O)(=O)c3ccccc3N2)CCCC1)c1ccccc1 (centres undefined)	-19	·	·	102
CCc1ccc(OCC(=O)N2CCCCC2)cc1	0	102	100	109
O=C(OCCN1C(=O)c2ccccc2C1=O)c1ccc(S(=O)(=O)NCc2ccco2)cc1	-8	86	71	·
COc1ccc(S(=O)(=O)N(CC(=O)Nc2ccc3c(c2)OCO3)c2ccc(C)cc2)cc1	-29	95	88	100
CC(c1ccccc1)C1CC(=O)N(Cc2ccco2)C1=O (centres undefined)	·	118	96	108
CN(C)CCN(C)Cc1cccc(C(F)(F)F)c1	-11	114	102	96
Cc1ccc(-c2nc3cccc(C)n3c2Nc2ccc3c(c2)OCCO3)cc1	-26	97	58	99
COCCCNC(=O)c1cc2cc3ccc(C)cc3nc2s1	-113	·	·	103
COc1cc2ccccc2c(=O)c2ccsc12	-14	79	74	100
CCCc1nn2c(=O)cc(COC(=O)c3cccc(NC(=O)c4ccc(OCC)cc4)c3)nc2s1	·	104	87	95
COc1ccc2c(CNCCc3ccccc3)c(C(=O)O)n(Cc3cccc(F)c3)c2c1	·	112	90	106
CCCn1c(C)ccc(-c2noc(CCCC(N)=O)n2)c1=O	-39	·	·	105
COc1ccc(CN2CCC(=O)NC2=O)cc1C	11	107	107	108
(next part)
SMILES	HCMV UL50-53 inh	Sa growth inh	Sa growth inh second temp	GIV Gai3 FP
CCN(Cc1ccccc1)Cc1c(O)ccc2oc(C)c(C(=O)Nc3ccccc3C)c12	-3	102	56	104
O=C(NC1CCCC1)c1cc2sccc2n1Cc1ccccc1	-9	93	79	100
NC(=O)NCc1ccc2[nH]c3c(c2c1)CCCC3	-32	98	97	103
CCN(CC)CCNC1CCN(C)CC1	-2	103	94	·
O=C(Nc1ccc(Cl)cc1)c1cc2ccccc2o1	-5	89	85	104
O=C(CN1N=C(c2ccccc2)CCC1=O)NC1CCCC1	4	101	98	104
COC(=O)c1ccc(S(=O)(=O)N2CCCN(C(=O)c3cccs3)CC2)n1C	-17	93	91	106
CN1C[C@H](C(=O)N[C@]2(C)O[C@@]3(O)[C@@H]4CCCN4C(=O)[C@H](Cc4ccccc4)N3C2=O)C[C@@H]2c3cccc4[nH]cc(c34)C[C@H]21	-42&-2&-21	97	82	107
CCOC(=O)N1CCC(=NNC(=O)c2ccccc2)CC1	14	106	98	·

Filtered by structure, those above with a thiophene ring, fused or not.
SMILES	HCMV UL50-53 inh	Sa growth inh	Sa growth inh second temp	GIV Gai3 FP
COc1ccccc1Nc1ncc2c(n1)CCN(Cc1ccc(C)s1)C2	·	90	91	102
CC(C)NS(=O)(=O)c1cc(C(=O)N2CCCC2)cs1	-16	·	·	114
NC(=O)c1c(/N=c2\oc3ccc(Cl)cc3cc2C(N)=O)sc2c1CCCC2	-30	·	·	110
CCCc1cc(C(=O)N2CCCN(C)CC2)cs1	-29	105	100	105
Cc1ccc2nc(Cl)c3cc(C(=O)NC4CCC(C)CC4)sc3c2c1 (centres undefined)	-30	110	88	107
O=C(/C=C/c1cccs1)NC(=S)NCc1ccccc1	-16	92	78	100
COc1ccc2cc3cc(C(=O)NCCc4ccccc4)sc3nc2c1Cl	·	90	88	97
O=C(c1csc2c1CCCC2)N1CCCCC1	5	102	102	·
Cn1nc(C(=O)NCCCN2CCOCC2)c2c1-c1ccsc1CC2	2	·	·	97
O=C(c1cc2c(s1)-c1ccccc1SC2)N1CCC(Cc2ccccc2)CC1	-9	·	·	99
CSc1nc(SC)c(C#N)c(-c2cccs2)n1	7	105	93	98
COCCCNC(=O)c1cc2cc3ccc(C)cc3nc2s1	-113	·	·	103
COc1cc2ccccc2c(=O)c2ccsc12	-14	79	74	100
O=C(NC1CCCC1)c1cc2sccc2n1Cc1ccccc1	-9	93	79	100
COC(=O)c1ccc(S(=O)(=O)N2CCCN(C(=O)c3cccs3)CC2)n1C	-17	93	91	106
